E coli growth – E. coli growth inhibition. Escherichia coli growth, OD600, 23 h; hits give low values. OD600 absorbance (test concentration not listed). hit rate 0.21% among 330,000;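 active means OD600 absorbance below the run mean of sample wells minus 3.6 SD, in any replicate, cut at about 0.56 in these data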;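 further: stock transfer was 300 nL into about 60 µL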
RanGTP-Imp inh – inhibitors of RanGTP-importin-beta interaction, primary screen, biochemical, FRET, CFP-Ran, YFP-importin-beta, homogeneous | cell-free CFP-Ran/YFP-importin-beta FRET ratio | inhibition, % (no concentration beside the values) | hit rate 1.1% among 300,000;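 active means most replicates above 15%; inconclusive means exactly half above 15%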;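 further: 0% = DMSO wells and 100% = Ran loaded with GDP instead of GTP; wells of about 40 µL received 100 nL stock; the first replicate is given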
FGF22 binding – binders of recombinant human FGF22 by thermal shift. SYPRO orange fluorescence; percent of sucrose octasulfate shift, DMSO zero. calls only at 9.99 µM. hit rate 1.5% among 340,000;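 active means melting point raised past a set limit in the mean and every replicate; inconclusive means no clear call; three in four hits are not shown here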
Target sequence (Q9HCT0 whole entry, looked up): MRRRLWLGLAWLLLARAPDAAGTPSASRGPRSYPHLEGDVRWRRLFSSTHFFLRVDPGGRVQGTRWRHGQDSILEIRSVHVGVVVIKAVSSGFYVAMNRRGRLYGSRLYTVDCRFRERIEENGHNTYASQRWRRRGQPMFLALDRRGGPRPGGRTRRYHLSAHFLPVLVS
MLL AF4-AF9 inh – MLL-AF4/AF9 protein interaction inhibition; hit rate 0.47% among 350,000; AID 651704; AlphaScreen, biotin-AF4 peptide binding to FLAG-AF9; P42568; inhibition, % at 10 µM;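 active means every replicate reaching a set inhibition limit, whatever the replicate mean, cut at about 25% in these data; inconclusive means mean inhibition reaches that limit but some replicates miss it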;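 further: 0% = plate neutral control median and 100% = total signal loss; the record names both 10 and 1 µM as test concentration; the first replicate is given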
HNF4A DNA FP – change in binding of human HNF4 alpha to DNA; P41235; hit rate 0.3% among 360,000; HNF4a-FITC DNA binding, fluorescence polarization, 1 h; activity change, % at 10 µM; in the data active means activity change above about 30%, passing the limit was not always enough;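 further: controls were the assay level and a saturating level of protein; the project sought stronger binding though the title names inhibitors; some compounds called inactive have numbers as strong as hits; positive values seem to mean higher polarization but the record does not say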
Target sequence (P41235 whole entry, looked up): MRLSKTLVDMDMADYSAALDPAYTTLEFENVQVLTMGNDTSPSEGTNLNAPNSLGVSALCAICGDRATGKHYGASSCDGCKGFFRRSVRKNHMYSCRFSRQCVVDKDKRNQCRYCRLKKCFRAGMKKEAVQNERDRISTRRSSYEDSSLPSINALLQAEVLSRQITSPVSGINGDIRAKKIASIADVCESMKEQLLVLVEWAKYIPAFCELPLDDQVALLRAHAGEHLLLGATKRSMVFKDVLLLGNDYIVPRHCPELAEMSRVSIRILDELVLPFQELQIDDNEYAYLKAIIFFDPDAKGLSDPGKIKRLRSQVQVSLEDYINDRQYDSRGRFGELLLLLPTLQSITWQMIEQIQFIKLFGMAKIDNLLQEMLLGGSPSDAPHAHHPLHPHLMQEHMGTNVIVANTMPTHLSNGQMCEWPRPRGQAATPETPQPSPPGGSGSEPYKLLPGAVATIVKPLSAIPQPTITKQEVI
Vif TR-FRET – HIV-1 Vif–A3G interaction blockers – biochemical, TR-FRET, GST-Vif 1-94, biotin-A3G peptide, dose response retest, primary screen (AID 1117319) | TR-FRET GST-Vif / biotin-A3G peptide binding; higher % means a stronger effect; test concentration not given here; strong numbers were not always called active | inhibition, %; hits with a dose series show IC50 in µM | hit rate 0.57% among 260,000;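 active means above the screen mean plus three standard deviations and confirmed in dose response; inconclusive means results disagree or hit not tested in dose response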;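 further: Vif residues 1-94 fused to GST binding biotinylated APOBEC3G peptide 110-148; 0% = full assay without inhibitor and 100% = GST in place of GST-Vif; retest series ran down from 100 µM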
UCH37 DUB inh – blocks the human deubiquitinase UCH37; Q9Y5K5; purified proteasome/UCH37, Ub-AMC cleavage fluorescence; inhibition, % (test concentration not listed); hit rate 0.33% among 330,000;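 active means mean of two replicates above 20%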;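 further: 0% = compound-free wells with enzyme and 100% = wells lacking proteasome; stock transfer was 100 nL into about 20 µL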
Target sequence (Q9Y5K5 whole entry, looked up): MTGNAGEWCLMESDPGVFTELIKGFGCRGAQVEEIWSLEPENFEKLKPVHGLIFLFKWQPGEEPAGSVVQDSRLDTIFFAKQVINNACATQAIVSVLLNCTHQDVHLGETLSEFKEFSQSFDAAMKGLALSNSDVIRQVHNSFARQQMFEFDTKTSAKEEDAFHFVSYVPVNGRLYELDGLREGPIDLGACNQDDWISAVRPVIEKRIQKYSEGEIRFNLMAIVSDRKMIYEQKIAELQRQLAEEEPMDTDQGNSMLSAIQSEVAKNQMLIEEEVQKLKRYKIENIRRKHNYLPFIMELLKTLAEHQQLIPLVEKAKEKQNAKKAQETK
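Signal – fluorescence, ex 355 nm, em 460 nm · System – Proteasome-bound UCH37 · Input – 0.15 nM proteasome as dispensed · Timing – 30 min preincubation with enzyme, 25 min cleavage at room temperature · Read-out basis – percent inhibition of cleavage signal versus uninhibited and no-proteasome wells · Medium – Tris-HCl pH 7.4 with ATP-MgCl2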
Starred values were filed as active, the others as inactive; i = inactive; ? = inconclusive; nt = not tested or not shown. The list is partial; count on the stated rates, not on these rows.

Structure	E coli growth	RanGTP-Imp inh	FGF22 binding	MLL AF4-AF9 inh	HNF4A DNA FP	Vif TR-FRET	UCH37 DUB inh
O=C(COc1ccc(S(=O)(=O)NCc2ccccc2)cc1Cl)N1CCOCC1	0.68	1.9	nt	nt	0.4	-6%	6.0
COc1ccccc1/C=C1\CCC(C2CCCC2)C1=O (stereo unspecified)	0.66	3.2	i	2.0	2.2	nt	1.0
Cc1ccc(CC(=O)Nc2nccs2)cc1	0.68	6.4	i	-0.2	0.2	0%	4.6
O=C(CCN1C(=O)c2ccccc2C1=O)Nc1ccc(-c2nc3ccccc3s2)cc1	0.74	-0.8	i	2.8	-3.5	nt	-28
Cc1ccc(C(=O)NC(C)c2ccc(S(N)(=O)=O)cc2)s1 (stereo unspecified)	0.71	-3.6	i	-2.2	1.6	-6%	6.2
CCOC(=O)CNC(=O)c1cn(CC(C)C)c(=O)c2cc(OC)c(OC)cc12	0.7	?	nt	nt	-1.9	6%	2.3
O=C(c1nnc(Cc2ccc(Cl)cc2)o1)N1CCc2ccccc2C1	0.7	3.9	i	-7.4	-3.8	-4%	6.2
C/C=C\C=C\C(=O)N1CC2(CC(c3cccc(NC(=O)/C(C)=C\C)c3)=NO2)C[C@H]1C(N)=O (stereo partly specified)	nt	?	i	-28	-2.9	nt	3.8
COc1ccc(C)cc1NC(=O)C(OC(=O)C1=NNC(=O)CC1)c1ccccc1 (stereo unspecified)	0.7	nt	i	2.2	-1.7	nt	-0.1
CCOc1ccc(/C(O)=C2/C(=O)C(=O)N(c3ccccn3)C2c2ccc(C)cc2)c(C)c1 (stereo unspecified)	0.69	-1.7	i	2.0	-6.0	-39%	6.0
Cc1ccccc1-c1nnn(CC(=O)NCc2ccc3c(c2)OCO3)n1	0.67	5.7	nt	nt	3.1	3%	0.4
COc1ccc(N2C(=O)C3CCCN3C2c2cccc(C)c2)cc1 (stereo unspecified)	0.69	3.1	nt	0.3	4.4	13%	2.1
CN(CCO)c1cccc2c1S(=O)(=O)N[C@@H](Cc1ccccc1)CO2	nt	nt	i	-0.3	0.7	nt	nt
CC(OC(=O)c1ccc(S(=O)(=O)N(C)C)cc1)C(=O)Nc1ccc(Cl)cn1 (stereo unspecified)	nt	-1.9	i	-1.7	-2.1	20%	nt
O=C(NC1CCN(Cc2ccccc2)CC1)c1c(Cl)cccc1Cl	0.62	3.8	i	-3.2	-1.9	-2%	2.2
CCC1=Nc2cc(C(=O)NCCN3CCOCC3)ccc2Sc2ccccc21	0.58	2.1	i	5.5	-1.2	6%	1.2
Cc1ccc(NC(=O)C2CCCN(C(=O)c3ccc(Cl)cc3)C2)cc1C (stereo unspecified)	0.67	-4.8	i	0.8	-2.6	6%	3.6
CCCC(C)(C)C(=O)N1CCC1(C)C(=O)Nc1ccc(OC)c(OC)c1 (stereo unspecified)	nt	nt	i	-0.6	3.4	nt	nt
CCOC(=O)C1(Cc2ccccc2)CCN(Cc2cccn2-c2nccs2)CC1	0.7	1.9	i	9.3	2.5	-7%	-1.1
Cc1ccc(CSCCNC(=O)c2ccccc2)cc1	0.67	-2.6	i	-1.5	-5.4	4%	-0.4
CCN1CCCC1CNC(=O)C(NC(=O)C1CCC(C)CC1)C(C)C (stereo unspecified)	0.69	-0.4	nt	nt	-2.8	-1%	2.2
CCN1CC=C2C(C#N)=C(N)C(C#N)(C#N)C(CCc3ccccc3)C2C1 (stereo unspecified)	0.72	nt	nt	nt	-40	10%	-36
CCCC1=NN(C(=O)Cc2ccc(OC)c(OC)c2)C(O)(C(F)(F)F)C1 (stereo unspecified)	0.7	-3.7	i	0.5	-4.2	?	6.8
Cc1ccc(C(=O)CSc2cc(C)[nH]c(=O)n2)cc1	0.73	2.7	i	0.0	17	nt	2.5
Cc1ccc(CNCC(=O)Nc2ccc(N3CCOCC3)cc2)cc1	0.65	1.2	i	0.4	-5.8	0%	1.4
CCOC(=O)C(Cc1nc(OCc2ccccc2)cc(OCc2ccccc2)n1)=NO	0.73	nt	i	10.0	4.0	-9%	3.8
O=C(CCCOc1ccc(Cl)cc1)N1CCOCC1	0.71	5.7	nt	nt	4.2	-6%	-0.6
O=C(Cc1cccs1)Nc1nc2c(s1)CCCC2	0.7	-3.3	nt	nt	4.3	6%	-1.7
CCCCc1cc(=O)oc2cc(C)cc(OCC(=O)Nc3ccccn3)c12	0.73	1.8	i	-1.2	-0.9	nt	-32
CCN(CC)C(=O)c1c(-c2ccccc2)oc2ccc(O)cc12	0.67	?	i	0.1	2.7	nt	-6.5
COc1ccc(C(=O)N/N=C/c2ccc(OC)c(OS(=O)(=O)c3ccccc3)c2)cc1	nt	4.2	i	1.9	1.8	29%	nt
CCOC(=O)c1c(NC(=O)CSc2nnc(C)s2)sc2c1CCC(C)C2 (stereo unspecified)	0.76	?	nt	nt	2.6	5%	6.1
CCCN(CC(=O)Nc1ccc(F)c(F)c1F)C(=O)Cc1ccc(OC)c(S(=O)(=O)N2CCOCC2)c1	0.69	nt	i	5.7	0.8	nt	1.7
CC1CN(C(=O)c2ccc(COCC(F)(F)F)o2)CC(C)O1 (stereo unspecified)	0.62	2.1	nt	nt	0.3	22%	-0.1
O=C(O/N=C1/CCCc2occc21)c1ccc(Cl)cc1Cl	nt	1.4	i	-0.1	-6.0	14%	nt
CCCCn1c(N)c(N(CCOC)C(=O)c2ccc(COc3ccccc3)o2)c(=O)[nH]c1=O	0.7	-0.9	i	-1.1	1.1	1%	2.5
COc1ccc(CN(Cc2ccc(OC)cc2)C(=O)c2cccs2)cc1	0.69	1.6	i	-2.6	3.8	nt	-1.6
O=C(N/N=C/c1cc(Br)ccc1O)C(=O)Nc1ccccc1OC(F)(F)C(F)F	nt	2.8	nt	nt	7.2	2%	nt
N#Cc1sc2nc3c(cc2c1N)CCCC3	0.69	1.7	nt	nt	-2.5	-7%	-82
O=C(c1ccccc1)N1CCN(C2CCCCC2)CC1	0.7	2.4	nt	nt	-0.9	1%	-1.3

The list goes on, starting with the last 3 of the part before.
Structure	E coli growth	RanGTP-Imp inh	FGF22 binding	MLL AF4-AF9 inh	HNF4A DNA FP	Vif TR-FRET	UCH37 DUB inh
O=C(N/N=C/c1cc(Br)ccc1O)C(=O)Nc1ccccc1OC(F)(F)C(F)F	nt	2.8	nt	nt	7.2	2%	nt
N#Cc1sc2nc3c(cc2c1N)CCCC3	0.69	1.7	nt	nt	-2.5	-7%	-82
O=C(c1ccccc1)N1CCN(C2CCCCC2)CC1	0.7	2.4	nt	nt	-0.9	1%	-1.3
COc1ccccc1Nc1nc(Cl)nc(Nc2ccccc2OC)n1	0.7	-1.7	i	-8.5	2.9	-2%	1.4
Cc1onc(-c2c(Cl)cccc2Cl)c1C(=O)OCC(=O)c1ccccc1	0.67	7.4	i	-1.5	-2.6	0%	4.8
CCOc1ccc(NC(=O)c2cccc3c2C(=O)N(CC2CCCO2)C3)cc1 (stereo unspecified)	0.68	3.7	i	9.6	0.6	nt	1.7
COc1cc(C(=O)NC(C)C2CC3CCC2C3)ccc1OC(F)F (stereo unspecified)	0.62	nt	i	-0.9	-2.9	18%	2.8
CSc1ccc(S(=O)(=O)N2CCC(C(=O)NCCc3ccccc3)CC2)cc1	0.74	5.0	i	0.7	-1.6	nt	-1.5
CC1=C(C#N)C(NC(=O)c2cccc(Cl)c2)(C(F)(F)F)C(=O)N1 (stereo unspecified)	0.66	-1.0	nt	nt	-7.1	nt	-1.9
Cn1ccnc1C(=O)C1CCCN(Cc2cn[nH]c2-c2ccc(-c3ccccc3)cc2)C1 (stereo unspecified)	nt	0.2	i	8.1	0.7	?	nt
COc1ccccc1Nc1ncccc1[N+](=O)[O-]	0.72	2.5	i	15	1.8	-1%	3.6
CC1(C(=O)NNC(=O)c2cccc([N+](=O)[O-])c2)CC1(Br)Br (stereo unspecified)	0.7	-1.9	i	6.5	1.0	2%	3.2
COc1cc(-c2nc(S(=O)(=O)c3ccc(C)cc3)c(N(C)C)o2)cc(OC)c1OC	0.69	1.0	nt	nt	0.3	-1%	0.9
COc1ccc([C@@H]2[C@@H]3C(=O)N(C(C)(C)C)C(=O)[C@@H]3[C@]3(Cc4ccccc4)C(=O)N(c4cccc(Br)c4)C(=O)N23)cc1	nt	-5.8	i	-6.3	-0.1	nt	19
O=C(C[n+]1cccc(CNC(=O)c2ccc(OC(F)F)cc2)c1)Nc1ccc(SC(F)F)cc1	0.61	7.9	nt	nt	6.8	nt	4.3
COC(=O)c1sc2ccccc2c1NC(=O)c1ccc(S(=O)(=O)N2CCCC(C)C2)cc1 (stereo unspecified)	0.71	-1.9	nt	nt	0.8	-10%	1.0
CCNc1c(NS(=O)(=O)c2ccc(C3CCCCC3)cc2)c(=O)oc2ccccc12	0.7	3.2	nt	0.6	3.3	nt	-3.8
COC(=O)c1ccc(CN2CCC(n3nccc3NC(=O)C3CCCC3)CC2)cc1	0.68	-0.4	i	1.3	3.2	nt	3.1
CC(=O)N(C)c1ccc(OCC(O)CN(Cc2ccco2)S(=O)(=O)c2ccc(C)cc2)cc1 (stereo unspecified)	0.71	4.9	nt	nt	1.2	0%	-0.1
O=C(NCc1ccccn1)NC1CCCCC1	0.69	-4.0	nt	nt	0.5	-6%	-0.3
COc1ccc(CCN2CC(C(=O)NCc3nc(C)c(C)s3)CCC2=O)cc1 (stereo unspecified)	0.7	-0.4	i	-1.5	0.9	nt	1.8
O=C(c1noc2c1CCCC2)N1CCN(Cc2ccccc2)CC1	0.67	-1.4	i	6.9	-2.1	-3%	1.9
Cc1cccc(C)c1NC(=O)COn1nnc2ccc(C(F)(F)F)cc21	0.68	3.0	i	1.0	-3.7	28%	1.0
COc1cccc(N(CC(=O)NC2CCCC2)C(=O)Cn2nnc(-c3ccc(C)o3)n2)c1	0.66	-0.7	i	-1.3	0.8	nt	2.8
COc1ccccc1CNC(=O)COC(=O)[C@H](Cc1c[nH]c2ccccc12)NC(=O)c1cccs1	0.66	2.6	nt	nt	-2.0	nt	-0.1
CCN(C(=O)COC(=O)c1[nH]c(=O)[nH]c(=O)c1N)c1ccccc1	0.72	-0.8	i	0.5	-2.9	2%	-20
CC(C)(C)OC(=O)C[C@H]1C/C=C\C[C@H](CC(=O)NCCO)C(=O)NCCOC1=O	nt	nt	i	2.1	-0.3	nt	2.3
COc1ccc(OC)c(-n2c(CN3CCC(C(N)=O)CC3)nc3ccccc3c2=O)c1	0.71	nt	nt	nt	-0.1	0%	1.3
CCOC(=O)C1=C(C)N=C2SC(C)C(=O)N2C1c1cccc(F)c1 (stereo unspecified)	0.71	-0.8	nt	nt	-2.7	-3%	-0.9
COc1ccc(C)cc1Nc1n[n+](-c2ccccc2)c(-c2ccc(SC)cc2)s1	0.65	-0.4	i	10	1.0	nt	3.1
CCOC(=O)C1=C(C)N=C2SC(C)C(=O)N2C1c1ccccc1 (stereo unspecified)	0.7	-0.8	i	-0.8	2.2	1%	5.1
COc1ccc2cc[nH]c2c1	0.69	2.1	i	6.7	-1.2	13%	2.5
COC(=O)c1ccccc1NC(=O)C1CCCN(c2nnc(-n3cccc3)s2)C1 (stereo unspecified)	0.78	-2.9	i	3.0	-2.3	-5%	4.7
Cc1ccccc1C(=O)OCC(=O)N(C)c1ccccc1	0.72	-2.4	i	-3.7	-0.5	-2%	1.9
